motility: Vibrio cholerae motility inhibitors, OD read-out (AID 588778); Vibrio cholerae motility, OD read-out; higher % means a stronger effect; test concentration not given here; primary cut-off and reference of the scale not given here; strong numbers were not always called active; inhibition, %; hits with a dose series show IC50 in µg/mL; 10,000 tested, under 10 active; in the data active means confirmed in a dose series
motility viability: also measured in motility; calls as there; inhibition, %; measured here: bacterial viability at 10 ug/mL;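 higher means fewer living bacteria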
The depositor's hits bear a star. The list is partial. The share of hits here may be higher or lower than overall.

item | mol | motility | motility viability
1 | COC(=O)c1ccccc1NC(=O)C1CCCN(S(C)(=O)=O)C1 (stereo unspecified) | -5% | -3
2 | CCOC(=O)c1[nH]c(C)c(/C(O)=C2\C(=O)C(=O)N(CCCN(CC)CC)C2c2cccs2)c1C (stereo unspecified) | 1% | -1
3 | COc1ccccc1C(=O)NNC(=O)c1ccc(Br)o1 | 11% | 7
4 | COc1ccc(NC(=O)c2cncc(O)c2)cc1OC | -3% | 2
5 | O=C(Nc1ccc(-c2noc(/C=C/c3ccccc3)n2)cc1)c1ccncc1 | 8% | 3
6 | N#CC1=C(SCC(=O)Nc2cc(S(=O)(=O)N3CCOCC3)ccc2Cl)NC(=O)CC1c1ccccc1F (stereo unspecified) | 12% | -4
7 | CCOC(=O)c1ccc2nc(NC(=O)CSc3nc(=O)cc(N)n3-c3ccccc3)sc2c1 | 11% | 17
8 | CCOc1ccc(NC(=S)NNC(=O)c2ccncc2)cc1 | -1% | -5
9 | O=C(CN1CCCCC1)N1c2ccccc2Sc2ccc(C(F)(F)F)cc21 | 28% | 6
10 | COc1ccc(C2/C(=C(\O)c3ccc(C)cc3)C(=O)C(=O)N2c2ncc(S(=O)(=O)c3ccc([N+](=O)[O-])cc3)s2)cc1 (stereo unspecified) | -1% | -2
11 | Cc1ccc(-c2cc(C(=O)O)c3cccc(Cl)c3n2)c(C)c1 | -19% | -6
12 | O=C(CSc1ccccn1)Nc1cccc(F)c1 | 11% | 3
13 | COc1cc(OC)cc(C(=O)Nc2ccc(CSc3ccccc3)cc2C)c1 | 7% | 3
14 | Cc1cc(C)c(NC(=O)CN2C(=O)c3ccccc3C2=O)c(Cl)c1 | 21% | -4
15 | O=C(CCc1nc2ccccc2s1)c1ccc(Br)cc1 | -8% | -4
16 | COC(=O)c1c(NC(=S)NNC(=O)c2ccco2)sc2c1CCC(C)C2 (stereo unspecified) | 3% | -1
17 | Cc1ccc(-c2cc(N)n(Cc3cccc(Cl)c3)n2)cc1 | -5% | -5
18 | O=c1cc(-c2ccccc2)nc(SCc2nc(-c3cccs3)no2)[nH]1 | 10% | -3
19 | O=c1oc(-c2cc3ccccc3o2)nc2sc3c(c12)CCCC3 | 1% | -1
20 | CC(=O)N1N=C(c2ccco2)CC1c1ccco1 (stereo unspecified) | -1% | -9
21 | O=C(NCCSc1nc2ccccc2s1)c1cccc(Cl)c1 | 6% | -3
22 | O=[N+]([O-])c1cccc(NC(=S)Nc2nn(Cc3ccc(Cl)c(Cl)c3)cc2Br)c1 | 7% | -4
23 | Fc1ccc(CN2CCN(C(=S)NCCc3ccccc3)CC2)c(Cl)c1 | 32% | 1
24 | CCOC(=O)c1c(NC(=S)N2CCN(c3ncccn3)CC2)sc(C)c1-c1ccccc1 | 13% | 9
25 | C=CCN(CC=C)CCOc1ccccc1OCC | 11% | 0
26 | CCOc1ccc2cc(C=O)c(=O)[nH]c2c1 | -23% | -7
27 | O=C(Nc1ccccc1)N1CCN(c2nc3ccccc3s2)CC1 | 34% | 15
28 | O=C(c1cnn2c(C(F)F)cc(C3CC3)nc12)N1CCc2ccccc2C1 | 11% | 9
29 | CNC(=S)NCCN1CCOCC1 | -6% | 0
30 | Cc1ccc(C)c(CN(CCCN(C)C)CCCN(C)C)c1 | 3% | -2
31 | COc1ccccc1N1C(=O)NC(=O)C(CCc2ccccn2)(Cc2ccc([N+](=O)[O-])cc2)C1=O (stereo unspecified) | -14% | -11
32 | Cc1c(NC(=O)CSc2nc(-c3ccccc3)c(C#N)c(=O)[nH]2)c(=O)n(-c2ccccc2)n1C | -8% | -5
33 | Cc1ccc(C(C)C)c(OC(=O)c2c(F)c(F)c(F)c(F)c2F)c1 | 0% | -12
34 | Cc1c(C(=O)Nc2ccc(Br)cc2Cl)oc2ccccc12 | 3% | -2
35 | CCOCC(=O)Nc1ccc(Cl)c(Cl)c1 | 27% | 4
36 | Cc1[nH]nc(-c2ccc(OCc3cnn(-c4ccccc4)c3)cc2O)c1Oc1ccc(Cl)cc1 | -29% | -9
37 | CC1(C)Cc2[nH]c(=O)c(C#N)cc2CO1 | -5% | 25
38 | O=C(O)c1ccc(Cn2cc(Cl)cn2)o1 | 9% | 6
39 | CC(=O)c1c(C)nn(C(=O)c2ccccc2)c1C(F)(F)F | 1% | -5
40 | CCOC(=O)c1c(NC(=O)CSc2nnc(-c3ccco3)o2)sc(C)c1C | -2% | -5
41 | O=C(CSc1ccccn1)N1CCN(C(c2ccccc2)c2ccccc2)CC1 | -2% | 25
42 | CCS(=O)(=O)Nc1ccc(C)c([N+](=O)[O-])c1 | 2% | -4
43 | CN1C(=O)c2ccc(NC(=O)CSc3ccc(Cl)cc3)cc2C1=O | -52% | -16
44 | CC(Oc1ccc(/C=C/[N+](=O)[O-])cc1)C(=O)O (stereo unspecified) | 24% | 10
45 | CCC(C)NCCCOc1ccc(I)cc1 (stereo unspecified) | 22% | 7
46 | NC(=O)c1ccccc1NC(=O)CSc1ccccn1 | -4% | -2
47 | N#C/C(=C\c1ccc(-c2cccc(Br)c2)o1)c1nc2ccccc2c(=O)[nH]1 | 25% | 0
48 | Cn1[nH]c2nc3[nH]n(C)c(=O)c3c(-c3ccccc3)c2c1=O | 8% | 8
49 | CCOC(=O)C(CC(C)C)NC(=O)c1ccc(Cl)cc1Cl (stereo unspecified) | 8% | -2
50 | Cc1cc(C)c2c(NC(=S)Nc3ccccc3)n[nH]c2n1 | -13% | -8
51 | Nc1nc(SCC(=O)c2ccc3c(c2)OCCO3)n[nH]1 | -7% | -5
52 | Cc1c(NC(=O)COc2c(Cl)cc(Cl)cc2Cl)c(=O)n(-c2ccccc2)n1C | -7% | -3
53 | O=C(Nc1ccccc1C(F)(F)F)c1cc(I)ccc1Cl | 13% | -1
54 | COc1cc2c(cc1OC)C(C)N(C(=O)c1cc3ccccc3o1)CC2 (stereo unspecified) | 8% | 26
55 | Cc1ccc(C)n1CCc1c[nH]c2ccccc12 | 36% | 8
56 | CCC(C)NC(=S)NNC(=O)c1ccncc1 (stereo unspecified) | 5% | -5
57 | S=C(NCc1ccc(Cl)cc1)N1CCN(C/C=C/c2ccccc2)CC1 | 2% | 1
58 | COC(=O)c1ccccc1NC(=O)CSc1nc2ccc(N3C(=O)c4ccccc4C3=O)cc2s1 | -24% | -8
59 | c1csc(-c2ncc3ccccn23)c1 | -1% | 3
60 | COC(=O)Cc1ccc(NC(=S)NCc2cccnc2)cc1 | 10% | 1

Next part.
item | mol | motility | motility viability
61 | CC(=O)Oc1c(/C=C(\C#N)C(N)=O)[nH]c2ccccc12 | 101% | 99
62 | CCOC(=O)Nc1cccc(NC(=O)c2ccccc2F)c1 | 11% | 9
63 | Cc1cc(Cl)ccc1OCCCC(=O)Nc1ccc(Cl)cc1F | -9% | -6
64 | CC1=C(c2ccccc2)[N+](=O)C2(CCCC2)N1[O-] | 10% | -5
65 | O=C(Nc1ccc(-c2nc3ccccc3[nH]2)cc1)c1c(F)c(F)c(F)c(F)c1F | 19% | -1
66 | C(=C\c1nc2ccccc2n1Cc1cccc2ccccc12)/c1ccco1 | 10% | 7
67 | S=c1[nH]c2cc(Cl)ccc2n1C1CCCCC1 | 26% | 11
68 | O=C(NCc1cccc(Cl)c1)c1ccncc1 | -12% | -5
69 | Cc1cc(Oc2cc(C#N)c(C#N)cc2N2CCOCC2)cc(C)c1Cl | 0% | -6
70 | CC(C)(C)c1cc(CCC(=O)O)cc(C(C)(C)C)c1O | 15% | 2
71 | Cc1ccc(S(=O)(=O)c2nc(S(=O)(=O)Cc3ccc([N+](=O)[O-])cc3)sc2Cl)cc1 | -2% | -2
72 | Cc1c(O)ccc(C(=O)CN2C(=O)c3ccccc3C2=O)c1O | -11% | -14

Single records, as listed above:
Entry for C(=C\c1nc2ccccc2n1Cc1cccc2ccccc12)/c1ccco1 : motility: 10%; motility viability: 7
Entry for Cc1ccc(S(=O)(=O)c2nc(S(=O)(=O)Cc3ccc([N+](=O)[O-])cc3)sc2Cl)cc1 : motility: -2%; motility viability: -2
Entry for S=c1[nH]c2cc(Cl)ccc2n1C1CCCCC1 : motility: 26%; motility viability: 11

Following part
item | mol | motility | motility viability
73 | O=C(Nc1ccc(Cl)cc1C(=O)NCC1CCCO1)c1ccc(Cl)cc1Cl (stereo unspecified) | 12% | 7
74 | Cc1cc(/C=C(/C#N)c2cccc(F)c2)c(C)n1-c1ccc(S(N)(=O)=O)cc1 | -32% | 43
75 | CCOc1ccccc1NC(=O)Nc1ccc(F)c(F)c1 | 2% | 1
76 | Cc1ccc(-c2nc3ccccc3c(=O)n2CCCn2ccnc2)cc1 | 9% | -5
77 | N#CC(C#N)=C1C(=O)N(Cc2ccc3c(c2)OCO3)c2ccccc21 | 5% | 29
78 | O=C(c1ccc(C(=O)N2CCOCC2)s1)N1CCOCC1 | 5% | -4
79 | O=C(c1ccc(COCC(F)(F)F)cc1)N1CCN(c2ccccn2)CC1 | 12% | -5
80 | CCN(CC)C(=O)c1ccc(C(O)C(Cl)(Cl)Cl)o1 (stereo unspecified) | -18% | -11
81 | COc1ccc(C(=O)n2ccc(C)n2)cc1Br | 20% | 34
82 | CC(=O)c1sc2nc(SCC(=O)NCCc3ccccc3)[nH]c(=O)c2c1C | 3% | 1
83 | Cc1ccc(OCCCN(C)Cc2ccccc2)cc1C | 36% | 10
84 | O=C(Nc1ccc(F)c(F)c1F)C(F)(F)F | -7% | 2
85 | COc1cc(NS(=O)(=O)c2ccc(NC(=O)CSc3nc4sc(C(=O)O)c(C)c4c(=O)[nH]3)cc2)nc(OC)n1 | 0% | -10
86 | Cc1c(Cl)ccc(S(=O)(=O)NCc2cccnc2)c1Cl | 5% | -7
87 | N#C/C(=C\c1ccc(-c2ccc(Cl)cc2)o1)S(=O)(=O)c1ccccc1 | 19% | 31
88 | COc1ccc(N(C)C(=S)Nc2ccc3nc(-c4ccco4)c(-c4ccco4)nc3c2)cc1 | 5% | 1
89 | CCOC(=O)CNC(=S)Nc1ccc(Br)cc1Cl | 9% | 5
90 | Cc1nnc(SCC(=O)N2N=CCC2c2ccccc2)s1 (stereo unspecified) | -3% | -4
91 | O=C(CN1CCOCC1)Nc1cc(C(F)(F)F)cc(NC(=O)CN2CCOCC2)c1Cl | 1% | -7
92 | O=C(CN1CCOCC1)Nc1cccc(Br)c1 | 6% | -1
93 | Cc1c(C(=O)Nc2ccccc2[N+](=O)[O-])csc1-c1ccccc1 | -2% | -5
94 | CC1(C)CC(C(=O)NCCC(c2ccccc2)c2ccco2)CCO1 (stereo unspecified) | 10% | 5
95 | COc1cc(OC)nc(NC(=O)CS(=O)(=O)c2ccccc2)n1 | 7% | 1
96 | COC(=O)Nc1ccc(S(=O)(=O)N2CCCC(C(=O)Nc3cccc4c3OCCO4)C2)cc1 (stereo unspecified) | 4% | -2

Next part; the last six above are carried over.
item | mol | motility | motility viability
91 | O=C(CN1CCOCC1)Nc1cc(C(F)(F)F)cc(NC(=O)CN2CCOCC2)c1Cl | 1% | -7
92 | O=C(CN1CCOCC1)Nc1cccc(Br)c1 | 6% | -1
93 | Cc1c(C(=O)Nc2ccccc2[N+](=O)[O-])csc1-c1ccccc1 | -2% | -5
94 | CC1(C)CC(C(=O)NCCC(c2ccccc2)c2ccco2)CCO1 (stereo unspecified) | 10% | 5
95 | COc1cc(OC)nc(NC(=O)CS(=O)(=O)c2ccccc2)n1 | 7% | 1
96 | COC(=O)Nc1ccc(S(=O)(=O)N2CCCC(C(=O)Nc3cccc4c3OCCO4)C2)cc1 (stereo unspecified) | 4% | -2
97 | O=C(CSc1nnnn1-c1ccccc1)c1cc2ccccc2oc1=O | 4% | -4
98 | CSCCC(C(=O)O)n1c(-c2ccc3ccccc3n2)n[nH]c1=S (stereo unspecified) | -10% | -4
99 | COC(=O)CC(C(=O)Nc1cc(C(=O)OC)cc(C(=O)OC)c1)N1CCN(C)CC1 (stereo unspecified) | 2% | 6
100 | CCOC(=O)N1CCN(C(=O)CSCc2c(F)cccc2Cl)CC1 | -1% | -10
101 | Nc1ccc2c(c1)Nc1ccccc1CC2 | 8% | 2
102 | COc1ccc(CCNc2ccncn2)cc1 | 8% | -2
103 | O=C1C2CC=C(Cl)CC2C(=O)N1n1cnnc1 (stereo unspecified) | 11% | -4
104 | O=C(O)c1ccc(CNCc2ccccc2Cl)cc1 | 0% | 0
105 | Cc1cc(C)n2nc(NCc3cccs3)nc2n1 | 16% | 6
106 | O=C(Nc1ccc(Cl)cc1F)c1cccc(C(=O)Nc2ccc(Cl)cc2F)n1 | -29% | -9
107 | CC1Cc2ccccc2N1C(=O)c1cccnc1 (stereo unspecified) | -16% | -1
108 | O=C(NCc1cccc(C(F)(F)F)c1)Nc1cccc(Cl)c1 | 133% | 15
109 | NS(=O)(=O)c1ccc(NC(=S)Nc2ccccc2Sc2ccc(Cl)cc2)cc1 | 13% | 1
110 | O=C(Nc1ccccc1C(=O)NC(Cc1ccccc1)C(=O)Nc1ccccc1Br)c1ccccc1 (stereo unspecified) | -12% | -7
111 | Oc1ccc2ccccc2c1CNc1nc2ccccc2n1CCN1CCCCC1 | -11% | -5
112 | c1ccc(-c2n[nH]nc2-c2ccccc2)cc1 | 19% | 1
113 | O=C(N(c1ccccc1)c1ccccc1)C(F)(F)F | 14% | 4
114 | O=C1CCC(=O)N1c1ccc2nc(-c3ccccc3)[nH]c2c1 | -2% | -5
115 | CC1CCc2c(sc3ncn(Cc4c(F)cccc4Cl)c(=O)c23)C1 (stereo unspecified) | -18% | -10
116 | Cc1c(Cl)cccc1-n1nc(C)c2c(C)cc(=O)oc21 | -14% | -10
117 | O=C(CSc1nsc(SCC(=O)N2CCCCC2)n1)N1CCCCC1 | 2% | -5
